Mtb growth: Confirmatory growth inhibition assay against Mycobacterium tuberculosis H37Rv, potency (AID 1949) | most inactive calls were filed without a number and no value below 0 was filed | one-dose inhibition, % at 10 µg/mL; IC50 in µg/mL for titrated hits | 100,000 tested, 1.6% active;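 active = confirmed in a dose series; inconclusive = about 50% or more but not retested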;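 note: bacteria grown 7 days with compound before Alamar blue readout; 0% = untreated bacteria and 100% = reference antibiotic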
Active calls of the source: *; i = inactive; ? = inconclusive. Some of the compounds tested (hit frequency here may not be typical).

SMILES	Mtb growth
CS(=O)(=O)Nc1nc2n(n1)C(c1ccccc1)C=C(c1ccc(Cl)cc1)N2 (stereo unspecified)	49%
Cc1cnn(C(=O)c2cc(C)oc2C)c1	i
CN1CCN(Cc2nc3c(c(=O)n(C)c(=O)n3C)n2Cc2c(F)cccc2Cl)CC1	i
CC12CCC(C(=O)Nc3ccccc3Sc3ccccc3)(OC1=O)C2(C)C (stereo unspecified)	i
COc1cc(S(=O)(=O)NCCCN2CCOCC2)ccc1Cl	i
CC(C)(C)C(=O)NC(=O)Nc1ccc2c(c1)COC2=O	i
O=C1CCCN1CCC1CCN(C(=S)Nc2ccc(Cl)cc2)CC1	i
Cc1ccc(C)c(NC(=O)NC(=O)C(F)(F)F)c1	i
Cc1ccc(C(=O)Nc2c(C)n(C)n(-c3ccccc3)c2=O)cc1C	i
CCC(=O)Nc1ccc(Cl)c(NC(=O)COc2cccc3ccccc23)c1	1%
Cc1nc2ccccc2c2c1C(=O)N(CCC1=CCCCC1)C2=O	?
COc1cc(C)c(S(=O)(=O)Nc2ccc(I)cc2)cc1C	5%
Cc1ccc(N2C(=O)c3oc4ccc(Cl)cc4c(=O)c3C2c2cccc(Cl)c2)nc1 (stereo unspecified)	i
O=C(Cn1cnc2sc(-c3ccccc3)cc2c1=O)Nc1ccccc1Cl	i
COc1ccc(-c2noc(COc3ccc(C)cc3)n2)cc1OC	1%

Shown with each value named: part of the list above.
structure: Cc1ccc(C)c(NC(=O)NC(=O)C(F)(F)F)c1
  Mtb growth: i
structure: Cc1ccc(C(=O)Nc2c(C)n(C)n(-c3ccccc3)c2=O)cc1C
  Mtb growth: i

Further compounds
SMILES	Mtb growth
CCOC(=O)C1=C(C)NC(C)=C(C(=O)OCC)C1/C=C/c1ccccc1OC	0%
COc1ccccc1C(=O)N1CCN(c2ccccc2F)CC1	i
COC(=O)c1cc(SC#N)ccc1N	?
O=C(c1ccccc1)c1ccc(OCC(O)CN2CCN(S(=O)(=O)c3ccccc3)CC2)cc1 (stereo unspecified)	7%
CCOc1ccc(Br)cc1C(=O)N1CCOCC1	i
CCOc1cc(CNC2CCCC2)c(Cl)cc1OC	i
O=C(Nc1ccc2c(c1)C1C=CCC1C(c1ccc([N+](=O)[O-])cc1)N2)c1ccc(Cl)cc1Cl (stereo unspecified)	i
C(=C\c1nn2c(C3COc4ccccc4O3)nnc2s1)/c1ccccc1 (stereo unspecified)	i
COc1ccc(S(=O)(=O)N2CCC(C)CC2)c(Cl)c1Cl	i
O=C(Nc1cc(Cl)cc(Cl)c1)C1CCCC1	i
Cc1ccccc1NC(=O)Nc1sc(NS(=O)(=O)c2ccccc2)nc1C	i
COc1ccccc1CCNC(=O)C1CCCO1 (stereo unspecified)	i
CCn1ncc(NC(=S)NCc2ccc(Cl)cc2)c1C(N)=O	i
CS(=O)(=O)N(CC(=O)Nc1cccc([N+](=O)[O-])c1)c1ccc(Oc2ccccc2)cc1	29%
CCN1CCN(C(=O)C23CCC(C)(C(=O)O2)C3(C)C)CC1 (stereo unspecified)	i
Cc1cc(NC(=O)c2cc(-c3ccncc3)nc3c(C)cccc23)no1	?
CC(C)NC(=O)c1ccccc1NC(=O)c1ccc(CN(c2ccccc2)S(C)(=O)=O)cc1	i
O=C1c2ccccc2NC(c2ccccc2)C1c1ccccc1 (stereo unspecified)	i
CCC(=O)Nc1ccc2nc(SCc3cccc(C)c3)sc2c1	18%
CC(=O)c1ccc(NC(=O)c2ccc(C)c(I)c2)cc1	i
CCN1CCN(CCOCCOc2ccc(F)cc2)CC1	i
COc1ccccc1NS(=O)(=O)c1cc(C(=O)Nc2ccccc2)ccc1Cl	i
CCC(=O)c1cn(CC(=O)NCc2cccnc2)c2ccccc12	1%
COCCCNC(=O)C(F)(F)C(F)(F)C(=O)NCCCOC	i
Cc1ccc2nc(-c3ccc(NC(=O)C(C)N4C(=O)c5ccccc5C4=O)cc3)sc2c1 (stereo unspecified)	i
CCn1c(=O)[nH]c2cc(C(=O)Nc3ccc(C)c(C)c3)ccc2c1=O	i
FC(F)(F)c1cccc(Cc2n[nH]c(=S)n2-c2ccccc2)c1	6%
O=C(NC(c1ccc(Cl)cc1)c1ccc2cccnc2c1O)C1CCCCC1 (stereo unspecified)	i
N#Cc1ccccc1CSc1ccccn1	2%
COc1cccc(NC2=C(Cl)C(=O)N(c3ccc(Cl)cc3)C2=O)c1	i
O=C(Nc1ccc(S(=O)(=O)Nc2nccs2)cc1)C1(c2ccccc2)CCCC1	i
COc1cc(OC)cc(C(=O)Nc2ccc(C(=O)NCC3CCCO3)cc2)c1 (stereo unspecified)	i
COc1cccc(OC)c1OCCCOc1cccc(Cl)c1	8%
Cc1cccc(N2CCN(C(=O)COc3ccc4ccccc4c3)CC2)c1C	i
CCOC(=O)c1c(NC(=O)CSc2nnc(-c3ccccc3)o2)sc2c1CCCC2	i
CC12CC3(C)CC(C)(C1)CC(C(=O)NCc1ccccn1)(C2)C3	i
COc1ccc(OCC(=O)Nc2sc3c(c2C(=O)NCC2CCCO2)CCCC3)cc1 (stereo unspecified)	i
N#CC1=C(SCC(=O)NCc2ccccc2)NC2=C(C(=O)CCC2)C1c1cccc(Cl)c1Cl (stereo unspecified)	i
CC(C)(C)c1ccc(S(=O)(=O)NCc2ccc(C(=O)NCC3CCCO3)cc2)cc1 (stereo unspecified)	i
CCOc1ccc(NC2CC(=O)N(C3CCCCC3)C2=O)cc1 (stereo unspecified)	9%
CCC(C#CCN1CCCCC1)(CC)OC(C)=O	i
CCc1cccc(C)c1NC(=O)COc1ccc(I)cc1	i
COc1nc2ccccc2nc1CCC(=O)O	0%
Cc1ccc(S(=O)(=O)N(CCc2ccccc2)CC(=O)N2CCCCC2)cc1	1%
Cc1ccc2nc(-c3sc4nc(C)ccc4c3N)[nH]c2c1	i
Fc1ccc(-n2nnc(-c3ccccc3Br)n2)cc1	1%
Cc1cc(C)c(NC(=O)CN(Cc2cccc(Cl)c2)S(=O)(=O)c2ccc(Cl)cc2)c(C)c1	2%
COC(=O)Nc1ccc(S(=O)(=O)N2CCCC(C(=O)Nc3cccc(C(F)(F)F)c3)C2)cc1 (stereo unspecified)	i
CC1CCCCN1C(=O)c1ccc(Cl)c(F)c1F (stereo unspecified)	i
Cc1ccc(C(=O)CS(C)(=O)=O)cc1	i
Cc1ccc(OCCCn2c(CCCO)nc3ccccc32)cc1	5%
CC1=C(C(=O)N(C)C)C(c2ccccc2Cl)NC(=O)N1 (stereo unspecified)	i
N/C(=N\OC(=O)CCCOc1ccc(Cl)cc1Cl)c1ccncc1	i
CCc1ccc(N(CC(=O)N2CCCCCC2)S(=O)(=O)c2ccccc2)cc1	i
O=C1Cn2c(nc3ccccc32)N1c1ccccc1F	0%
CN(CCOc1cccc(C(F)(F)F)c1)Cc1ccccc1	4%
O=C(Nc1ccc2oc(=O)ccc2c1)c1ccccc1[N+](=O)[O-]	i
CCCCn1c(-c2ccccc2)nc(=S)c2c1CC(C)(C)OC2	i
O=C(Cc1coc2ccc3ccccc3c12)N1CCCC1	i
COc1ccc(CCNC(=O)C2CC(=O)N(c3ccc(C)c(Cl)c3)C2)cc1OC (stereo unspecified)	i
The list continues.
SMILES	Mtb growth
CCOC(=O)c1ccc(NC(=O)CCS(=O)(=O)Cc2ccccc2)cc1	i
O=C(CSc1oc(-c2cccs2)nc1S(=O)(=O)c1ccccc1)NCC1CCCO1 (stereo unspecified)	i
CCCOc1ccc(/C=N/n2c(-c3ccc(Cl)cc3)n[nH]c2=S)cc1	i
COc1ccc(OCC(=O)Nc2ccc(S(=O)(=O)Nc3cc(OC)nc(OC)n3)cc2)cc1	i
O=C1c2oc3ccc(Br)cc3c(=O)c2C(c2ccc(Cl)cc2)N1Cc1ccc(F)cc1 (stereo unspecified)	0%
Cc1ccc(NC(=O)CN2CCC(C)CC2)cc1C	i
Cc1ccc(S(=O)(=O)N(C)CC(=O)Nc2nc3ccccc3s2)cc1	i
Cc1nn2c(N)c(C#N)cnc2c1-c1ccccc1	2%
Cc1ccccc1C=Cc1nc2ccccc2c(=O)[nH]1	4%
O=C1c2oc3ccc(F)cc3c(=O)c2C(c2ccc(F)cc2)N1CCc1ccccc1 (stereo unspecified)	i
COc1ccc(NC(=O)CN(Cc2cccc(C)c2)S(=O)(=O)c2ccc(Cl)cc2)cc1OC	46%
C=CCn1c(SCC(=O)Nc2cccc(C(C)=O)c2)nnc1-c1ccccc1O	i
O=C(CCSc1ccccc1)Nc1cccc(Cl)c1Cl	i
Cc1ccccc1NC(=O)C1CCC(=O)N1 (stereo unspecified)	i
c1ccc(-c2cn3c(nc4ccccc43)[nH]2)cc1	i

Of the compounds above, five contain a thiophene ring, fused or not:
SMILES	Mtb growth
O=C(Cn1cnc2sc(-c3ccccc3)cc2c1=O)Nc1ccccc1Cl	i
CCOC(=O)c1c(NC(=O)CSc2nnc(-c3ccccc3)o2)sc2c1CCCC2	i
COc1ccc(OCC(=O)Nc2sc3c(c2C(=O)NCC2CCCO2)CCCC3)cc1 (stereo unspecified)	i
Cc1ccc2nc(-c3sc4nc(C)ccc4c3N)[nH]c2c1	i
O=C(CSc1oc(-c2cccs2)nc1S(=O)(=O)c1ccccc1)NCC1CCCO1 (stereo unspecified)	i

5 entries drawn at random from the list so far:
SMILES	Mtb growth
CC12CC3(C)CC(C)(C1)CC(C(=O)NCc1ccccn1)(C2)C3	i
O=C1Cn2c(nc3ccccc32)N1c1ccccc1F	0%
Cc1ccc(S(=O)(=O)N(C)CC(=O)Nc2nc3ccccc3s2)cc1	i
CC(C)(C)C(=O)NC(=O)Nc1ccc2c(c1)COC2=O	i
N#CC1=C(SCC(=O)NCc2ccccc2)NC2=C(C(=O)CCC2)C1c1cccc(Cl)c1Cl (stereo unspecified)	i

Next entries follow.
SMILES	Mtb growth
CCSc1nnc(-c2ccncc2)n1Cc1ccccc1	5%
Cc1ccc(-c2cc(C(F)F)n3ncc(C(=O)Nc4c(C)n(C)n(-c5ccccc5)c4=O)c3n2)cc1	i
O=C(OCc1c(F)cccc1Cl)c1ccccc1[N+](=O)[O-]	i
COc1ccc(S(=O)(=O)N2CCOCC2)cc1C(=O)Nc1ccc2c(c1)OCO2	i
CC(Oc1ccc(Cl)cc1Cl)C(=O)Nc1ccc(Cl)c(-c2nc3ncccc3o2)c1 (stereo unspecified)	?
O=C(NC1CCCCC1)c1nn2c(c1Br)NC(c1cccs1)CC2C(F)(F)F (stereo unspecified)	11%
COc1cc(C=O)ccc1Oc1ncnc2sc(-c3ccccc3)cc12	i
Cc1ccc(C(=O)NC(=S)Nc2ccc(Cl)c(C(=O)O)c2)cc1Cl	i
Cc1cccc(CSc2nnc(-c3ccccc3)n2C)c1	2%
CCCCc1nc(SCC(=O)NCc2ccccc2)c2c3c(sc2n1)COC(C)(C)C3	i
COc1cc(NC(=S)NC(=O)c2cccs2)ccc1NC(=O)c1ccccc1Cl	27%
COc1ccccc1-c1nnc(SCC(=O)NC23CC4CC(CC(C4)C2)C3)o1	i
CCOCCCNCc1ccc(C)s1	i
Cc1nnc(SCC(=O)Nc2nsc(-c3ccc(Cl)cc3)n2)s1	i
CCCCOc1ccc(C(=O)N2CCc3ccccc32)cc1	i

Quoted from above, three compounds:
SMILES	Mtb growth
CCOCCCNCc1ccc(C)s1	i
Cc1nnc(SCC(=O)Nc2nsc(-c3ccc(Cl)cc3)n2)s1	i
CCCCOc1ccc(C(=O)N2CCc3ccccc32)cc1	i

(cont.)
SMILES	Mtb growth
COc1ccc(CCNC(=O)C(C)Sc2nnc(-c3cc(Cl)ccc3O)n2C)cc1OC (stereo unspecified)	i
Cc1[nH]c(=O)[nH]c(=O)c1NS(=O)(=O)c1ccc2c(c1)n(C)c(=O)n2C	1%
Cc1ccc2c(c1)-c1c(sn(-c3ccc(S(N)(=O)=O)cc3)c1=S)C(C)(C)N2	14%
O=C(O)CNc1ncnc2c1oc1ccccc12	i
CCOC(=O)c1ccc(NC(=O)c2cc(S(=O)(=O)N3CCOCC3)c(Cl)cc2Cl)cc1	i
CCOc1cc(-c2nc3ccccc3s2)cc(Cl)c1OC(C)=O	i
O=C(CN(CCc1ccccc1)S(=O)(=O)c1ccc(Cl)cc1)Nc1ccccc1C(F)(F)F	i
COc1ccc(Cl)cc1NC(=O)CN(c1ccccc1Br)S(C)(=O)=O	i
O=C(CSc1nnnn1-c1ccccc1)NC(c1ccccc1)c1ccccc1	i
COc1ccccc1NC(=O)C(=O)N1CCCC1	i
Cc1cccc(NC(=S)NN2CCN(C)CC2)c1C	i
CC(C)C(=O)Nc1cccc(C(=O)Nc2cccc(O)c2)c1	i
O=C(O)c1cc(NC(=O)c2ccccc2F)ccc1O	i
O=C1CC(c2ccco2)CC2=C1C(c1ccccc1O)n1c(nc3ccccc31)N2 (stereo unspecified)	i
CCCC(CCC)C(=O)Nc1cccc(C(=O)Nc2nccs2)c1	i
CCOC(=O)C(c1ccccc1)N1CCN(c2ccccc2F)CC1 (stereo unspecified)	i
C=CCn1c(SCC(=O)N2CCOCC2)nc2sc3c(c2c1=O)CCC(C)C3 (stereo unspecified)	i
COc1cccc(OC)c1C(=O)Nc1ccc(-c2nc3ccccc3o2)cc1	i
COc1ccc(Cn2c(C)ccc2C)cc1	i
COc1ccc(C(=O)NC(=S)Nc2ccc3oc(-c4cccnc4)nc3c2)cc1Br	i
COC(=O)c1c(-c2ccccc2)csc1NC(=O)CSc1ncnc2sc(C)c(C)c12	7%
CS(=O)(=O)N(CC(=O)Nc1ccc(F)cc1F)C1CCCCC1	i
COc1ccccc1C1CC(=O)C2=C(C1)NC(C)=C(C(=O)OC1CCCC1)C2c1ccc(O)cc1 (stereo unspecified)	4.7µg/mL*
COc1cccc(C2NS(=O)(=O)N=C2N)c1OC (stereo unspecified)	i
N=c1n(CCO)c2ccccc2n1CCOc1cccc2ccccc12	1%

Screening results: PubChem, Southern Research Institute
